AmpC inh no det: blocks E. coli AmpC beta-lactamase in absence of detergent; AID 585; 1.8% of 71,000 active; P00811; AmpC nitrocefin hydrolysis, absorbance 480 nm, no detergent; potencies from a single point are estimates; Potency, µM (titrated, usually from 28.7 µM), inactives show at the highest dose activity change, negative = inhibition; active = falling curve, for most hits resting on a single point; inconclusive = weak or doubtful change; inactive = flat or rising curve; also: % of control where 0% means no effect; about half of the hits show no inhibition at the top dose; a quarter of the inactives give rising signals
Target sequence (P00811 whole entry, looked up): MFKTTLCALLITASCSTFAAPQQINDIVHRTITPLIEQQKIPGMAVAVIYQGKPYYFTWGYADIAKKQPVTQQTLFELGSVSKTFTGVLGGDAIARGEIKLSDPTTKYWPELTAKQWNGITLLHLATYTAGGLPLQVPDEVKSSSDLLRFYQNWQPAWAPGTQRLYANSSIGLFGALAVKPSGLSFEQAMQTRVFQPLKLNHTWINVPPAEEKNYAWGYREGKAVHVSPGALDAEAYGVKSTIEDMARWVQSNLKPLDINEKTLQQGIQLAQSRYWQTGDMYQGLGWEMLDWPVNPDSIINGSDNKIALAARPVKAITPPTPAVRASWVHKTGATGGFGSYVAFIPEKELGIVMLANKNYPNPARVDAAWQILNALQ
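AmpC in 20 mM phosphate buffer pH 7.0 was preincubated 15 min at room temperature with compounds. Nitrocefin (800 uM stock) was then added and hydrolysis followed at 480 nm every 20 s for 4 min.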
The depositor's hits bear a star; [ ] = remark or other dose. Potency is read from the fitted curve at half-maximal effect. Not all compounds are listed; rates above refer to the full screens.

Results for Cc1nonc1NC(=O)OC1CCCCC1 ?
AmpC inh no det: -16%

What do the screens show for `COc1cc2c(cc1NC(=O)c1cccnc1)CCCC2`?
AmpC inh no det: 27%

Results for O=C(CN1CCC(C(=O)c2ccc(F)cc2)CC1)Nc1ccccc1 ?
AmpC inh no det: 22%

How did O=S(=O)(c1cccs1)N1CCc2ccccc21 do in these assays?
AmpC inh no det: -6%

How did NC1=N[C@H](c2ccc(Cl)cc2)N(c2ccc(S(=O)(=O)Nc3ncccn3)cc2)C(N)=N1 do in these assays?
AmpC inh no det: 3%[5.75 µM]

What do the screens show for `COc1ccc(NC(=O)CN2CCN(CC(=O)Nc3ccccc3Cl)CC2)cc1`?
AmpC inh no det: 85%

How did O=C1NCCN1c1ncc([N+](=O)[O-])s1 do in these assays?
AmpC inh no det: -9%[12.8 µM]

What do the screens show for `CN1CCN([C@@H](c2ccccc2)c2ccc(Cl)cc2)CC1`?
AmpC inh no det: 26%[12.8 µM]

Results for Cc1ccc(NC(=O)COC(=O)C2CC2C)c(S(=O)(=O)N2CCCCC2)c1 (centres undefined) ?
AmpC inh no det: 4%

What do the screens show for `COc1ccc2nc(NC(=O)c3cccc(OCc4c(C)noc4C)c3)sc2c1`?
AmpC inh no det: 20%

What do the screens show for `CCOC(=O)c1cc2c(=O)n3cc(C)ccc3nc2n(Cc2cccnc2)c1=N`?
AmpC inh no det: 0%

What do the screens show for `ClC1=CCC2CN(CCN3CCCCC3)CC2C1` (centres undefined)?
AmpC inh no det: -18%

What do the screens show for `CCOc1ccccc1Nc1ccc(C(=O)O)cc1NC(C)=O`?
AmpC inh no det: -4%

What do the screens show for `Cc1nnsc1C(=O)Nc1ccccc1Cl`?
AmpC inh no det: 42%

How did c1ccc(-c2csc(-n3cnnn3)n2)cc1 do in these assays?
AmpC inh no det: -10%

How did N#Cc1nc(COc2ccc(-c3ccccc3)cc2)oc1NCCCN1CCOCC1 do in these assays?
AmpC inh no det: 140%

Results for O=C(CCn1c(=O)c2ccccc2n(Cc2cc(=O)n3ccccc3n2)c1=O)NCc1ccco1 ?
AmpC inh no det: -2%

What do the screens show for `CCc1c(C)nc2cc(-c3ccc(OC)c(OC)c3)nn2c1N1CCCC1`?
AmpC inh no det: 133%

What do the screens show for `COCCn1c(=O)c(C)nc2cnc(Oc3cccc(Cl)c3)nc21`?
AmpC inh no det: 55%

Results for O=C(NCc1ccc2c(c1)OCO2)c1c(O)c2cccc3c2n(c1=O)CCC3 ?
AmpC inh no det: 0%

What do the screens show for `CC(=O)Nc1ccc(S(=O)(=O)n2cnc3cc(C)c(C)cc32)cc1`?
AmpC inh no det: -5%

Results for Cc1nn(-c2ccccc2)c(C)c1NC(=O)Cc1cccs1 ?
AmpC inh no det: -9%

What do the screens show for `CC(=O)Nc1ccc(S(=O)(=O)N2CCN(c3cc(C)ccc3C)CC2)cc1`?
AmpC inh no det: 110%

How did CC(=O)N1CC2(C)CN(C(C)=O)CC(C)(C1)C2 do in these assays?
AmpC inh no det: -3%

What do the screens show for `O=C(Nc1ccc(N2CCOCC2)c(Cl)c1)c1ccco1`?
AmpC inh no det: 0%

Results for COC(=O)N1CCC2(CC1)CN(C(=O)Nc1cccc(C#N)c1)C2 ?
AmpC inh no det: 14%

How did N#CCc1c(C#N)c(N)nc(N2CCN(S(=O)(=O)c3ccccc3)CC2)c1C#N do in these assays?
AmpC inh no det: -1%

What do the screens show for `Cc1cc(C)cc([N+](=O)[O-])c1`?
AmpC inh no det: -11%

How did CCOC(=O)CNC(=O)c1sc2nc(C)cc(C)c2c1N do in these assays?
AmpC inh no det: 6%

What do the screens show for `COC(=O)c1c(N2C(=O)CCC2=O)sc2c1CCCC2`?
AmpC inh no det: 11%

How did CCOC(=O)c1cnn(-c2ccccc2)c1NC(=O)c1cccs1 do in these assays?
AmpC inh no det: -3%

What do the screens show for `C[C@H](NC(=O)NCc1cccs1)C(=O)O`?
AmpC inh no det: -1%

How did CCc1cc(C(=O)OC)c(NC(=O)CCC(=O)O)s1 do in these assays?
AmpC inh no det: -2%

What do the screens show for `CC(NC(=O)c1ccco1)c1ccc2c(c1)OCCO2` (centres undefined)?
AmpC inh no det: 10%

Results for O=C(NCCCNC(=O)C(F)(F)C(F)F)C(F)(F)C(F)F ?
AmpC inh no det: 4%

Results for CC(=O)c1cc(OC(=O)c2ccncc2)ccc1OC(=O)c1ccncc1 ?
AmpC inh no det: 16%

Results for O=c1[nH]cnc2scc(-c3ccc(F)cc3)c12 ?
AmpC inh no det: 7%

What do the screens show for `NC(=NCCC[C@H](N)C(=O)O)N[N+](=O)[O-]`?
AmpC inh no det: -4%

How did COCCN1Cc2cccc(C(=O)Nc3cc(C)cc(C)c3)c2C1=O do in these assays?
AmpC inh no det: 73%

How did O=C(CCCNS(=O)(=O)c1cccc2nsnc12)NCc1ccc(Cl)cc1 do in these assays?
AmpC inh no det: 10%

A draw from above in order of molecular weight, largest number first.
Results for CC(=O)c1cc(OC(=O)c2ccncc2)ccc1OC(=O)c1ccncc1 ?
AmpC inh no det: 16%

What do the screens show for `CC(=O)Nc1ccc(S(=O)(=O)n2cnc3cc(C)c(C)cc32)cc1`?
AmpC inh no det: -5%

How did CCOC(=O)c1cnn(-c2ccccc2)c1NC(=O)c1cccs1 do in these assays?
AmpC inh no det: -3%

How did COCCN1Cc2cccc(C(=O)Nc3cc(C)cc(C)c3)c2C1=O do in these assays?
AmpC inh no det: 73%

Results for O=C(NCCCNC(=O)C(F)(F)C(F)F)C(F)(F)C(F)F ?
AmpC inh no det: 4%

Results for COC(=O)N1CCC2(CC1)CN(C(=O)Nc1cccc(C#N)c1)C2 ?
AmpC inh no det: 14%

What do the screens show for `O=C(Nc1ccc(N2CCOCC2)c(Cl)c1)c1ccco1`?
AmpC inh no det: 0%

What do the screens show for `COC(=O)c1c(N2C(=O)CCC2=O)sc2c1CCCC2`?
AmpC inh no det: 11%

What do the screens show for `CC(NC(=O)c1ccco1)c1ccc2c(c1)OCCO2` (centres undefined)?
AmpC inh no det: 10%

Results for O=c1[nH]cnc2scc(-c3ccc(F)cc3)c12 ?
AmpC inh no det: 7%

What do the screens show for `NC(=NCCC[C@H](N)C(=O)O)N[N+](=O)[O-]`?
AmpC inh no det: -4%

What do the screens show for `Cc1cc(C)cc([N+](=O)[O-])c1`?
AmpC inh no det: -11%

Continuation.
What do the screens show for `O=C1NC2=C(C(=O)c3ccccc32)C(c2ccccc2)N1` (centres undefined)?
AmpC inh no det: -11%

How did N#Cc1ccccc1NC(=O)CSc1nccn1CCc1ccccc1 do in these assays?
AmpC inh no det: -3%

How did CC(C)NC[C@H](O)c1ccc2ccccc2c1 do in these assays?
AmpC inh no det: 31%

Results for CC(C)(C)C(=O)CCN1C(=O)C2(OCCO2)c2ccccc21 ?
AmpC inh no det: -2%

How did CCN(CC)C(=O)C1CCN(Cc2cccc(OCc3ccccc3)c2)CC1 do in these assays?
AmpC inh no det: 102%

What do the screens show for `O=C(CN1C(=O)COc2ccccc21)NCc1ccc(C(=O)O)cc1`?
AmpC inh no det: -11%

Results for NC(=O)C1(N2CCCCC2)CCN(C2CC(=O)N(Cc3cccs3)C2=O)CC1 (centres undefined) ?
AmpC inh no det: 0%

How did O=C(CCn1nc(-c2ccccc2)ccc1=O)N1CCCC1 do in these assays?
AmpC inh no det: -2%

Results for CC(C)N(Cc1nc(-c2ccccc2)no1)C(=O)CN(C)S(=O)(=O)c1ccccc1 ?
AmpC inh no det: 73%

What do the screens show for `O=C1c2ccccc2C(=O)N1CCn1nc(Cl)nc1Cl`?
AmpC inh no det: 2%

What do the screens show for `CC1CCN(c2c(NCc3ccc(C(=O)NCC4COc5ccccc5O4)cc3)c(=O)c2=O)CC1` (centres undefined)?
AmpC inh no det: 4µM*[single pt active]

What do the screens show for `O=C(c1ccco1)n1nc(NCc2ccccc2)nc1NCc1ccccc1`?
AmpC inh no det: -18%

What do the screens show for `COCC(C)n1c(C)cc(C(=O)CSc2nc3ccccc3c(=O)[nH]2)c1C` (centres undefined)?
AmpC inh no det: 32%

Results for Cc1ccc(NC(=O)c2cc(NC(=O)C3CC=CCC3C(=O)O)ccc2N2CCOCC2)cc1 (centres undefined) ?
AmpC inh no det: -13%

How did Cc1nc2ccccc2nc1-c1ccc(N=[N+]([O-])c2ccc(-c3nc4ccccc4nc3C)cc2)cc1 do in these assays?
AmpC inh no det: 0%[5.75 µM]

Results for CC(=O)NCC(=O)OCC(=O)Nc1ccc(C(C)=O)cc1 ?
AmpC inh no det: -6%

How did O=C(O)CCCn1nc(-c2ccccc2)c2ccccc21 do in these assays?
AmpC inh no det: 11%

How did CCC(NS(=O)(=O)c1ccc(C)cc1)C(=O)N1CCC2(O)CCCCC2C1 (centres undefined) do in these assays?
AmpC inh no det: 15%

How did COc1cccc(-n2c(SCC(=O)Nc3cc(C)on3)nc3c([nH]c4ccccc43)c2=O)c1 do in these assays?
AmpC inh no det: 76%

What do the screens show for `Cc1cc2ccccc2cc1CN1CCOCC1`?
AmpC inh no det: 28%

Results for O=C(c1ccc2c(c1)OCO2)N1CCCC(c2ccccc2)C1 (centres undefined) ?
AmpC inh no det: 26%

What do the screens show for `CN1CCN(c2c[nH]c(=O)[nH]c2=O)CC1`?
AmpC inh no det: -5%

Results for CCCOc1cccc(NC(=O)c2cc(C)oc2C)c1 ?
AmpC inh no det: 10%

What do the screens show for `O=S(=O)(N1CCCCC1)N1CCN(c2ccc(F)cc2)CC1`?
AmpC inh no det: 12%

What do the screens show for `CC(=O)c1ccc(N2CCN(C(=O)c3cc4c(-c5ccccc5F)nn(C)c4s3)CC2)cc1`?
AmpC inh no det: 83%

How did CCCS(=O)(=O)N1CCN(CCCc2ccccc2)CC1 do in these assays?
AmpC inh no det: -2%

What do the screens show for `COC(=O)[C@@]1(Cc2ccc(OC)cc2)[C@H]2c3cc(C(=O)N4CCCC4)n(CCN4CCOCC4)c3C[C@H]2CN1C(=O)c1ccccc1`?
AmpC inh no det: 186%

How did COc1cccc(-c2cc(C(F)(F)F)nc(N3CCN(c4ccccc4)CC3)n2)c1 do in these assays?
AmpC inh no det: -15%

Results for CCCCOC(=O)c1cccc(NC(=O)CC)c1 ?
AmpC inh no det: 2%

What do the screens show for `COc1cc(NC(=O)CN2C(=O)NC(C)(CC(C)C)C2=O)cc(OC)c1` (centres undefined)?
AmpC inh no det: 9%

How did O=C1Nc2ccccc2C12Nc1ccccc1S2 (centres undefined) do in these assays?
AmpC inh no det: 73%

Results for O=C(CSc1nnc(-c2ccco2)n1CC1CCCO1)N1CCCCC1 (centres undefined) ?
AmpC inh no det: 12%

How did Cc1c(NC(=O)c2noc3c2CCc2ccccc2-3)c(=O)n(-c2ccccc2)n1C do in these assays?
AmpC inh no det: 4µM*[single pt active]

What do the screens show for `COC(=O)c1ccc(Cn2nnc3ccccc3c2=O)o1`?
AmpC inh no det: 3%

Results for Cc1ccc2oc(=O)c3cnn(CC(=O)N4CCCCCC4)c3c2c1 ?
AmpC inh no det: -4%

Results for CCOC(=O)N1CCN(C(=O)c2cn(CC)c3ccc(S(=O)(=O)N4CCCC4)cc3c2=O)CC1 ?
AmpC inh no det: 18%

How did CC1(C)CC(=O)CC(=Nc2ccc(C(=O)O)cc2)C1 do in these assays?
AmpC inh no det: -16%

How did Cc1ccccc1Cn1cc(S(=O)(=O)CC(=O)N2CCCCC2)c2ccccc21 do in these assays?
AmpC inh no det: 29%

Results for CCCCNC(=O)c1cccc(C(=O)NCCCC)c1 ?
AmpC inh no det: 0%

Results for COc1ccc(C(=O)N2CCN(c3c(C)cccc3C)CC2)cc1OC ?
AmpC inh no det: 137%

How did Cc1cc(C)c2c(=O)[nH]c(=O)n(Cc3ccccc3)c2n1 do in these assays?
AmpC inh no det: -20%

Results for Cc1ccc(C(C(=O)NCc2ccc(F)cc2)N(C(=O)c2csnn2)C2CC2)o1 (centres undefined) ?
AmpC inh no det: 14%

What do the screens show for `CN1CC(=O)N(CC(=O)Nc2ccc(Cl)c(C(F)(F)F)c2)C1=O`?
AmpC inh no det: 24%

What do the screens show for `CCc1nnc2c3cnn(-c4ccccc4)c3ncn12`?
AmpC inh no det: 13%

What do the screens show for `CCOC(=O)N1CCN(C(=O)c2cn(C)c(=O)c3c2c2ccccc2n3C)CC1`?
AmpC inh no det: 80%

How did Cc1nn(CC(=O)Nc2ccc(C(=O)N(C)C)cc2)c(=O)c2ccccc12 do in these assays?
AmpC inh no det: 6%

Results for COc1ccc(-n2nnnc2SCC(=O)c2ccc(O)c(O)c2)cc1 ?
AmpC inh no det: 11%

How did CCCOc1ccc(N2CC(C(=O)Nc3ccccc3F)CC2=O)cc1 (centres undefined) do in these assays?
AmpC inh no det: 26%

Results for O=[N+]([O-])c1cc(C(F)(F)F)cc([N+](=O)[O-])c1Cl ?
AmpC inh no det: -3%

How did O=C(NCC1CCCO1)c1ccc2nc(N3CCCCC3)sc2c1 (centres undefined) do in these assays?
AmpC inh no det: 35%

Results for COc1ccc(C(=O)Nc2ccc(S(=O)(=O)Nc3onc(C)c3C)cc2)cc1OC ?
AmpC inh no det: -17%

What do the screens show for `O=C(NCCCN1CCCCCC1)C1CC(=O)N(CCc2ccccc2)C1` (centres undefined)?
AmpC inh no det: 15%

What do the screens show for `COc1cccc(C2=NOC(C(=O)Nc3cccc(C(C)=O)c3)C2)c1OC` (centres undefined)?
AmpC inh no det: 12%

What do the screens show for `CCNC[C@H](O)c1cccc(O)c1`?
AmpC inh no det: -5%[12.8 µM]

How did C=C(C)c1ccc(C(C)(C)NC(=O)NCc2ccco2)cc1 do in these assays?
AmpC inh no det: -12%

How did C=CCNC(NC(=O)c1ccccc1)(C(=O)OCC)C(F)(F)F (centres undefined) do in these assays?
AmpC inh no det: 16%

What do the screens show for `CCc1nn2c(=O)cc(CSc3nc4sc5c(c4c(=O)n3C)CCCC5)nc2s1`?
AmpC inh no det: 59%

Screening results deposited in PubChem by National Center for Advancing Translational Sciences (NCATS).
